LASV entry inh – inhibitors of Lassa virus binding or cell entry; Lassa virus pseudotype entry inhibition, cell reporter; control for the full effect not named in the record; Potency, µM (titrated, usually from 37.9 µM), without a hit: at the highest dose activity change, negative = inhibition, hits mostly inhibitors; hit rate 1.2% among 300,000; active means well fitted inhibition curve with a large enough effect; inconclusive means small, poorly fitted or top-dose-only effect, or effect the other way; inactive means flat fitted curve, though single readings scatter; tested in HEK293 cells; further: on the % scale 0 is the no-effect control and ±100 the full control effect; nearly all actives have a fitted effect of over 50% in size; luciferase read-out
Marburg entry inh – Marburg virus entry inhibition; Marburg virus pseudotyped entry inhibition, cell reporter; control for the full effect not named in the record; about a third of the inactives were read at about 46 µM; Potency, µM (titrated, usually from 37.8 µM), for inactives: at the highest dose activity change, negative = inhibition, hits mostly inhibitors; hit rate 1.8% among 300,000; AID 540276; active = well fitted inhibition curve with a large enough effect; inconclusive = small, poorly fitted or top-dose-only effect, or effect the other way; inactive = flat fitted curve, though single readings scatter; tested in HEK293 cells; about a fifth of its hits are not listed in these tables; further: on the % scale 0 is the no-effect control and ±100 the full control effect; luciferase read-out
2A StopGo – lowers the luciferase signal of an FMDV 2A StopGo reporter | hit rate 1.2% among 410,000 | human cells with a luciferase reporter of 2A StopGo recoding; control for the full effect not named in the record | Potency, µM (highest dose often 57.9 µM), for the others: top-dose signal change, negative = less light; active = well fitted falling curve with a large enough effect; inconclusive = small, poorly fitted or top-dose-only effect; inactive = no such curve, though single readings can be large or run the other way; tested in HEK293T cells; further: on the % scale 0 is the no-effect control and ±100 the full control effect; nearly all actives have a fitted effect of over 45% in size; luciferase light after 4 h
RE007 growth inh – less growth of the S. pombe RE007 Vpr strain. S. pombe RE007 Vpr strain, BacTiter-Glo ATP luminescence, 24 h; control for the full effect not named in the record. hit rate 0.21% among 360,000. Potency, µM (titrated, usually from 92.2 µM), for the others: top-dose activity change, negative = less growth; active = well fitted falling curve with a large enough effect; inconclusive = small, poorly fitted or top-dose-only effect; inactive = no such curve, though single readings can be large or run the other way;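 further: on the % scale 0 is the no-effect control and ±100 the full control effect; nearly all actives have a fitted effect of over 50% in size; the assay follows cell death caused by Vpr and the record does not say whether a fall means rescue or toxicity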
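Fission yeast RE007 carrying one integrated HIV-1 vpr copy, seeded at OD 0.01 in PMG+AL medium with 23 nL pinned compound. Grown 24 h at 30 degrees; viability read by BacTiter-Glo luminescence after 5 min.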
SARS PLP yeast – inhibitors of SARS-CoV papain-like protease in yeast; hit rate 0.19% among 330,000; Potency, µM (doses to about 32.9 µM), for the others: at the highest dose activity, positive = growth rescue; S. cerevisiae expressing SARS-CoV PLpro, growth rescue; control for the full effect not named in the record; further: 0% is about no effect; nearly all actives have a fitted effect of over 55% in size; growth read by luminescence after 48 h
Cruzain noTriton – inhibitors of Trypanosoma cruzi cruzain without detergent; P25779; purified cruzain, Z-FR-AMC fluorescence, no detergent; Potency, µM, for the others: max response, negative = inhibition, hits mostly inhibitors; hit rate 2.3% among 200,000; AID 1476; active means well fitted curve in the direction sought with a large enough effect; inconclusive means small, poorly fitted or top-dose-only effect, or another doubt; inactive means no such curve, though single readings can be large; an effect the other way counts as inactive or inconclusive;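 further: plate controls were enzyme without inhibitor for no effect and buffer without enzyme for full effect; nearly all actives have a fitted effect of over 40% in size; top concentration of the series not given in the record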
Target sequence (P25779 123-467 limits assumed): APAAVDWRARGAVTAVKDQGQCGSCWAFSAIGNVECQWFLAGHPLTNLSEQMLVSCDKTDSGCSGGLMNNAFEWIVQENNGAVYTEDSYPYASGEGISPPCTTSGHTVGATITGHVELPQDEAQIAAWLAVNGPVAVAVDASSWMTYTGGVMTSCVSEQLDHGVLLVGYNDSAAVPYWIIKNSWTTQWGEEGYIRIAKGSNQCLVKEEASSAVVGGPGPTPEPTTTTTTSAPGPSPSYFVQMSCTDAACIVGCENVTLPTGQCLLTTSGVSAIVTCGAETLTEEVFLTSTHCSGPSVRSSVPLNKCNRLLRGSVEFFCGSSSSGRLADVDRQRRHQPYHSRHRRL
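Purified cruzain at 1.5 nM, pre-incubated 15 min with compound at room temperature in 100 mM sodium acetate pH 5.5, 5 mM DTT, 0.00005% Triton X-100. Reaction started with 2 uM Z-FR-AMC; AMC fluorescence increase over 60 s gives rate.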
NS1 function inh – influenza NS1 inhibition. hit rate 0.4% among 270,000. Potency, µM (highest dose often 46.1 µM), without a hit: top-dose activity, positive = more growth. S. cerevisiae slowed by influenza A NS1, growth recovery by OD600; further: actives are rising curves; nearly all actives have a fitted effect of over 50% in size
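Recovery from NS1-induced slow growth read by OD600 in budding yeast switched to galactose assay medium (pH 6.0, -URA) at 1:100 dilution. Compound 23 nl per well; the matching strain lacking NS1 serves as control.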
Cruzain Triton – cruzain (T. cruzi) inhibition with detergent; purified cruzain, Z-FR-AMC fluorescence, 0.01% Triton; Potency, µM, for inactives: max response, negative = inhibition, actives largely listed as inhibitors; hit rate 0.43% among 200,000; AID 1478; active means well fitted curve in the direction sought with a large enough effect; inconclusive means small, poorly fitted or top-dose-only effect, or another doubt; inactive means no such curve, though single readings can be large; an effect the other way counts as inactive or inconclusive;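 further: plate controls were neutral wells for no effect and buffer without enzyme for full effect; nearly all actives have a fitted effect of over 40% in size; top concentration of the series not given in the record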
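Cysteine protease activity tested under reducing, mildly acidic conditions (100 mM sodium acetate pH 5.5, 5 mM DTT) plus 0.01% Triton X-100. Cruzain 1.5 nM; substrate Z-FR-AMC 2 uM; 15 min compound preincubation at room temperature.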
* = called active by the depositor; ? = inconclusive; . = not tested or not shown; & = joins results of further samples; [ ] = remark or other dose. Unless noted, the call rests on the fitted dose curve; in most records, active means well fitted rising curve with a large enough effect; inconclusive means small, poorly fitted or top-dose-only effect; inactive means no such curve, though single readings can be large or run the other way. Potency means the concentration at half of the fitted maximal effect.

SMILES | LASV entry inh | Marburg entry inh | 2A StopGo | RE007 growth inh | SARS PLP yeast | Cruzain noTriton | NS1 function inh | Cruzain Triton
CCC(C)(C)NC(=O)C(c1ccncc1)N(C(=O)c1sc(C)nc1C)c1ccc(F)cc1 (stereo unspecified) | -3%[46.1 µM] | -15%[46.1 µM] | 2% | -4% | 0% | . | 0% | .
O=C(NNC(=S)NC(=O)c1ccc(Br)cc1)c1cccc([N+](=O)[O-])c1 | . | . | -13% | -12% | -1% | . | -69% | .
Cc1cc(C)n2nc(SCc3ncc(-c4ccccc4)o3)nc2n1 | 5% | 5% | -19% | 0% | -4% | 7% | -13% | -1.4%
Cc1nn2c(NCCN(C)C)c3c(nc2c1-c1ccccc1)CCCC3 | -16%[46.1 µM] | 10µM* | -1% | 3% | 0% | . | 2% | .
CC(C)(CNC(=O)c1ccc([N+](=O)[O-])c(Cl)c1)CNC(=O)c1ccc([N+](=O)[O-])c(Cl)c1 | ? | ? | ? | -1% | 5% | ? | ? | -3.7%
CCOc1cc(/C=N/NC(=O)c2nn(C)cc2Br)ccc1OCc1ccccc1Cl | ? | ? | ? | -23% | 6% | 7% | -5% | -4.5%
CN1Cc2c(N3CCOCC3)nc3sc(C(=O)c4ccccc4)c(N)c3c2CC1(C)C | ? | ? | -29% | 23% | 0% | . | 0% | .
O=C(Nc1nc2ccccc2s1)c1ccc(Cl)s1 | . | . | 6% | -14% | 5% | ? | -34% | -0.1%
CN(C)c1ccc(-c2nc3cnccn3c2Nc2cccc(C(F)(F)F)c2)cc1 | -11%[46.1 µM] | -3%[46.1 µM] | -19% | . | . | 0% | . | -8.2%
Cc1cccc(N2CCN(S(=O)(=O)c3cc(C(=O)Nc4ccc(Oc5ccccc5)cc4)ccc3F)CC2C)c1 (stereo unspecified) | ? | . | ? | . | . | -26% | . | 0.0%
COc1cc(C(F)(F)F)c(C(=O)N(C)Cc2ccc(Cl)c(Cl)c2)cn1 | -25% | -24%[46.1 µM] | -25% | -15% | -2% | . | -5% | .
CCOC(=O)c1oc2ccccc2c1NC(=O)c1cccs1 | -20% | 17% | -21% | -4% | -2% | -12% | 1% | 4.8%
COc1ccc(C(=O)NC2CCN(S(=O)(=O)c3ccccc3)CC2)cc1 | -4%[46.1 µM] | ? | 7% | 1% | 1% | . | 8% | .
CC(=O)N1CCc2cc(S(=O)(=O)Nc3ccccc3N3CCN(C)CC3)ccc21 | . | 0% | -6% | 1% | 13% | -8% | -9% | 4.1%
Cc1ccc(CNC(=O)C2CCCN2S(=O)(=O)c2ccc(F)cc2)cc1 (stereo unspecified) | -12% | ? | -22% | -3% | . | . | -1% | .
COc1ccccc1CNC(=O)c1cnc2sc(N3CCCCCC3)nn2c1=O | -4%[46.1 µM] | . | -24% | . | . | -5% | . | -7.5%
O=C(Cn1cccc1C(=O)c1ccccc1)NCc1ccccn1 | ? | -1% | -3% | 4% | -1% | -10% | 2% | 0.9%
O=C(CCn1c(=S)oc2ccccc21)Nc1ccc2c(c1)OCCO2 | 5% | 12% | 8% | -6% | 0% | -16% | -3% | -5.9%
CC(CSc1nc2ccccc2s1)Cn1c(N2CCCC2)nc2c1c(=O)[nH]c(=O)n2C (stereo unspecified) | -22% | 8.9µM* | -2% | 10% | -1% | -1% | -34% | -5.2%
CCCCC(CC)CN1CN(CC(CC)CCCC)CC(C)(N)C1 (stereo unspecified) | . | . | -21%&-11% | 7%[18.4 µM] | . | -5% | . | 9.3%
COc1cccc(CNC(=O)CN2C(=O)CC(c3ccccc3)=Nc3ccccc32)c1 | -4%[46.1 µM] | ? | 1% | 2% | 0% | . | -6% | .
Cc1sc2nc(CSCC(=O)N3CC(C)OC(C)C3)[nH]c(=O)c2c1C (stereo unspecified) | 0% | -5% | -21% | 3% | 0% | . | . | .
CCOC(=O)c1c(NC(=O)C[n+]2ccccc2)sc2c1CCCC2 | 13% | 0% | -13% | 2% | 0% | . | 3% | .
O=C(c1cc2nc(-c3ccccc3)cc(-c3ccccc3)n2n1)N1CCN(C(=O)c2ccco2)CC1 | ? | ? | -3% | 17% | -9% | ? | -29% | -4.0%
Cc1ccccc1Cn1c(Cc2ccccc2)nc2ccccc21 | 0% | -15% | -2% | -20% | -28% | -3% | -64% | -4.9%
CCOC(=O)c1c(NC(=O)COC(=O)c2nccnc2N)sc(C(=O)N(C)C)c1C | 1% | 12% | -21% | 0% | 0% | . | . | .
O=C(CCn1c(=O)oc2ccccc21)N(Cc1ccccc1)c1ccccn1 | 1% | 0% | 14% | 7% | . | . | -4% | .
Cn1c(SCc2c(F)cccc2Cl)nnc1-c1cnccn1 | 15% | -8% | 15% | 2% | 11% | -3% | 8% | 3.2%
COc1cc2c(cc1OC)C(C)N(C(=O)c1cc3c(=O)oc4ccc(C)cc4c3s1)CC2 (stereo unspecified) | -12% | 17% | -12% | -4% | 5% | ? | 10% | -5.3%
Cc1ccc(-c2csc(NC(=O)C3=NN(c4ccccc4)C(=O)CC3)n2)cc1 | ? | ? | 28µM* | 1% | 11% | -15% | 11% | -4.9%

Continued:
SMILES | LASV entry inh | Marburg entry inh | 2A StopGo | RE007 growth inh | SARS PLP yeast | Cruzain noTriton | NS1 function inh | Cruzain Triton
COc1ccc(N2CC(C(=O)N3CCCC(C)C3)CC2=O)cc1 (stereo unspecified) | -6%[46.1 µM] | ? | 4% | 6% | 12% | . | 2% | .
CCn1cc(C(=O)N[C@@H](CCSC)C(=O)NCCO)c(=O)c2cc3c(cc21)OCO3 | 2%[46.1 µM] | 23%[46.1 µM] | -1% | 12% | 1% | . | 0% | .
Cn1c(CC(=O)NC(C)(C)CO)c(Sc2ccccc2)c2ccccc21 | -10% | -28% | -21% | 3% | -3% | ? | -26% | -3.7%
CC12CCC(=O)N1C(C(=O)NCc1ccc(Cl)cc1Cl)CS2 (stereo unspecified) | -14% | 11% | 1% | 1% | 1% | . | . | .
CCOc1cc(S(=O)(=O)N2CCCCCC2)ccc1F | 3% | 0% | 40%[activator] | 3% | -4% | ? | -15% | 0.2%
COc1ccc(N2C(N)=C(C#N)C(c3ccsc3)C3=C2CCCC3=O)c(OC)c1 (stereo unspecified) | ? | ? | -14% | 22% | 8% | -5% | 25% | -5.6%
O=C(OC(C(=O)NC1CCCC1)c1ccccn1)c1cccs1 (stereo unspecified) | 15% | 21% | 11% | 14% | -4% | 2% | -5% | 1.4%
COc1ccc(OC)c(NC(=O)COC(=O)c2cc3c(s2)CCC3)c1 | . | . | -26% | -6% | 0% | . | 4% | .
CCC(C)(C)n1nnnc1CN(Cc1ccc(Cl)cc1)Cc1ccco1 | -9% | ? | ? | -7% | -25% | 10% | -49% | -6.1%
COc1cccc(CN2CCN(Cc3cc4ccccc4o3)CC2CCO)c1 (stereo unspecified) | ? | ? | 0% | -7% | -1% | . | 20% | .
COc1cc(OC)cc(C(=O)Nc2ccccc2N2CCOCC2)c1 | 18% | 4% | -12% | -2% | -6% | 2% | -37% | 4.1%
CCc1ccccc1N(CC(=O)NC(C)c1ccccc1)S(C)(=O)=O (stereo unspecified) | . | . | -8% | 13% | -2% | . | 6% | .
O=C(Cn1nnc(N2CCCCC2)n1)c1ccc(Cl)c(Cl)c1 | . | . | -21% | -3% | 0% | . | -2% | .
COC(=O)CN(C)C(=O)c1ccc(OC)c(OC2CCN(C(C)C)CC2)c1 | 24%[46.1 µM] | 23%[46.1 µM] | 13% | 4% | 0% | . | 9% | .
Cn1cnc(S(=O)(=O)N2CCC(C(=O)Nc3ccc(OC(F)(F)F)cc3)CC2)c1 | 18%[46.1 µM] | . | -13% | . | . | 7% | . | -1.4%
O=C(CSc1nc(-c2ccccc2)nc2c1CCCC2)c1ccc(F)cc1 | -24%[46.1 µM] | 8%[46.1 µM] | -24% | . | . | 4% | . | -3.3%
O=C(c1ccsc1)N1CCCC(N2CCOCC2)C1 (stereo unspecified) | . | . | -3% | -15% | 17% | . | 12% | .
Nc1nnc(SCC(=O)NNC(=O)c2ccccc2F)s1 | 20%[46.1 µM] | -2%[46.1 µM] | 2% | -3% | 5% | . | . | .
CCN(CC)S(=O)(=O)c1cc(C(=O)NC2=NCCS2)ccc1Cl | 10% | 13% | 6% | -8% | -25% | -13% | -112% | -2.4%
c1ccc(-c2nnc3n2NC(c2ccc4c(c2)OCO4)S3)cc1 (stereo unspecified) | ? | -5%&-2% | -4% | 3% | -5% | -5% | -33% | -4.1%
S=c1nc(-c2ccccc2)oc2c1CCCC2 | ? | 0% | 22% | -18% | -1% | -16% | 9% | -3.3%
CC1Cc2ccccc2N1C(=O)CSc1nnnn1C1CCCC1 (stereo unspecified) | 3% | ? | -11% | 16% | 5% | 10% | 1% | 6.4%
Cc1ccc(NC(=O)CNC(=O)c2ccc(C)s2)nc1 | ? | 10% | 12% | 0% | 2% | . | . | .
N/C(=N\OC(=O)c1ccc(Cl)c(Cl)c1)c1cccnc1 | ? | ? | 44%[activator] | -4% | -5% | ? | -69% | -10%
CCCCC(CC)C(=O)NCCCN1CCN(CCCNC(=O)C(CC)CCCC)CC1 (stereo unspecified) | 2% | ? | ? | -9% | -4% | 7% | 11% | 2.9%
O=C1CN(C(=O)COC(=O)c2ccccc2O)c2ccccc2N1 | -15% | 6% | 5% | 11% | 0% | . | 3% | .
COc1cc2c(cc1OC)[C@H](C)N(C(=O)CSc1nc(O)c(C(C)C)c(=O)[nH]1)CC2 | . | -5% | -11% | 9% | -2% | . | 15% | .
CCOc1ccc(-c2nc3c(c(CC)nn3-c3ccccc3)c3cc(OC)c(OC)cc23)cc1 | -10%[46.1 µM] | . | -21% | . | . | -2% | . | 1.1%
CC1(C)C2CCC1(C)C(OC(=O)CSc1nc(N)cc(=O)[nH]1)C2 (stereo unspecified) | -25% | 1% | ? | -4% | -4% | 3% | 5% | -0.2%
